Screening data deposited in PubChem by National Center for Advancing Translational Sciences (NCATS).
TRPML1 blocker – qHTS for Inhibitors of the Human Mucolipin Transient Receptor Potential 1 (TRPML1). Mucolipin-1 (Homo sapiens), Q9GZU1. hit rate 0.02% among 390,000. AID 624415, 2012. TRPML1-inducible cells, Ca2+ dye fluorescence, FDSS; active compounds read low; inhibition of EC80 agonist-evoked calcium signal. activity change, negative = inhibition, % (test concentration not listed); in the data active means activity change below about -50%; inconclusive means about -30% to -50%; inactive means above about -30%;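 also: stimulus is agonist 54-4 at its EC80 concentration; % is scaled to controls: 0 for no effect and ±100 for the full control effect; compound concentration not given in the record; the text of the record puts the active cut at -80%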
Target sequence (Q9GZU1 whole entry, looked up): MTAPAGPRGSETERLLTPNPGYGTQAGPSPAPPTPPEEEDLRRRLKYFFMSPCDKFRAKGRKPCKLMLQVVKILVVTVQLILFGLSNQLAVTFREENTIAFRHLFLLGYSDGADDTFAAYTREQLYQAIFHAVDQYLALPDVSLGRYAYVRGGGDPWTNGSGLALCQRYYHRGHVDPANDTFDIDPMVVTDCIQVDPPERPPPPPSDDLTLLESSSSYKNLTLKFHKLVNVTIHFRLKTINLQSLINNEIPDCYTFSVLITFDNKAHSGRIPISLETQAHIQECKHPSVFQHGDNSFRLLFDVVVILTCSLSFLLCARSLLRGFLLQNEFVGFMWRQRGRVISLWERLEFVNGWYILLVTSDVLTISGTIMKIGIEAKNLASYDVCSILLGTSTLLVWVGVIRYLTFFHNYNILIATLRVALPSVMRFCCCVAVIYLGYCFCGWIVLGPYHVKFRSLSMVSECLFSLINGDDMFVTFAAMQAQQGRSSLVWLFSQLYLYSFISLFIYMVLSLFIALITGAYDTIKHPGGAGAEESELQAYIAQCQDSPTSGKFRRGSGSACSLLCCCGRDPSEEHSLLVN
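TRPML1-DL cells, Tet-induced overnight (~16 h, 37 °C) at 1,500 cells/well, were loaded with Ca8 no-wash dye plus quencher for 45-90 min at room temperature. Compounds were pinned during FDSS kinetic reading; agonist 54-4 at EC80 (4 uM final) then added.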
TRPML1 ag – qHTS for Agonists of the Human Mucolipin Transient Receptor Potential 1 (TRPML1). activation, % (no concentration beside the values). Mucolipin-1 (Homo sapiens), Q9GZU1. hit rate 0.12% among 410,000. TRPML1-expressing cells, Ca2+ dye fluorescence, FDSS; host cell line not named in the record; reference of the full effect not given here; in the data active = activation above about 50%; inconclusive = about 30% to 50%; inactive = below about 30%; also: 0% is about no effect; the text of the record puts the active cut at 80%
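Calcium fluorescence on an FDSS kinetic reader gave the read-out. Tet-induced TRPML1-DL cells were plated overnight, dye-loaded (Ca8 with quencher, 45-90 min, room temperature, dark), then read 110 s after compound addition, and again 110 s after 4uM final 54-4 (EC80).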
gsp agonist – qHTS for Agonist of gsp, the Etiologic Mutation Responsible for Fibrous Dysplasia/McCune-Albright Syndrome: qHTS; hit rate 0.13% among 340,000; Potency, µM (top dose mostly 76.9 µM), inactives show at the highest dose activation (cAMP increase), actives largely listed as activators; AID 624287, 2012; gsp mutant cells, cAMP HTRF, 30 min; control for the full effect not named in the record; active = well fitted activation curve with a large enough effect; inconclusive = small, poorly fitted or top-dose-only effect, or another doubt; inactive = no such curve, though single readings can be large or run the other way; cell line not stated here;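 also: phosphodiesterase inhibitor Ro 20-1724 added with compounds to block cAMP breakdown; potency is read from the fitted curve at half-maximal effect; nearly all actives have a fitted effect of over 60% in size; about a fifth of the inactives were tested at one dose only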
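Cells in DMEM/10% FBS with G418 were pretreated with compounds in DMSO plus […] (300 uM stock) for 30 min at 37C. cAMP was measured by HTRF (cAMP-d2 plus anti-cAMP antibody-K) after 30 min at room temperature.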
Menin MLL FP FL – qHTS Assay for Inhibitors Targeting the Menin-MLL Interaction in MLL Related Leukemias: Competition With Fluorescein Labeled MLL-derived Peptide; FP activity change, % at 61.4 µM; Fluorescence polarization, fluorescein-MLL peptide displacement from menin; 290,000 tested, under 10 active; inconclusive = falling polarisation curve, or a change in total fluorescence; inactive = total fluorescence flat and polarisation flat or rising; no compound was filed as active; the % refers to the polarisation; negative = inhibition;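 also: % of control where 0% means no effect; inhibitors lower the polarisation; unlabelled MLL peptide was the positive control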
ClpP mod – qHTS Assay for Activators of ClpP | ATP-dependent Clp protease proteolytic subunit (Bacillus subtilis (strain 168)), P80244 | hit rate 1.9% among 340,000 | Potency, µM (top dose mostly 57.5 µM), for inactives: at the top dose activity change, negative = active | purified B. subtilis ClpP, FRET peptide cleavage, 20 min | AID 651965, 2013; active = well fitted falling curve with a large enough effect; inconclusive = small, poorly fitted or top-dose-only effect; inactive = no such curve, though single readings can be large or run the other way; also: potency is read from the fitted curve at half-maximal effect; the source files actives as falling curves though it sought activators and does not explain the sign; nearly all actives have a fitted effect of over 65% in size; many hits overshoot -100%
Target sequence (P80244 whole entry, looked up): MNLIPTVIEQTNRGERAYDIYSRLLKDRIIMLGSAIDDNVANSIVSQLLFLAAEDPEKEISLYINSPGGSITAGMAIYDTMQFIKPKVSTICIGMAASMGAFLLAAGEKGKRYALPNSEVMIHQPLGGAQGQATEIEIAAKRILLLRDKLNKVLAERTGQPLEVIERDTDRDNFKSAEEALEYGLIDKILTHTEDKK
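ClpP 10 microg/mL final, pH 8 Tris/KCl buffer with BSA, glycerol, Tween-20; compound pinned in; FRET-FV substrate; RT 20 min; Ex320/Em430; ΔFRET vs ADEP 5.8 microM, DMSO, no enzyme.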
gsp antagonist – qHTS for Antagonists of gsp, the Etiologic Mutation Responsible for Fibrous Dysplasia/McCune-Albright Syndrome: qHTS; gsp-mutant cells, cAMP HTRF, 30 min; control for the full effect not named in the record; Potency, µM (highest dose often 76.9 µM), for the others: at the highest dose activity change, negative = inhibition, usual class: inhibitors; AID 624288, 2012; hit rate 0.4% among 340,000; active = falling curve of any shape with a large fitted effect; inconclusive = falling curve, mostly with a smaller effect; inactive = flat or rising curve; cell line not stated here;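 also: intracellular cAMP measured with PDE inhibitor Ro 20-1724 present during compound exposure; potency is read from the fitted curve at half-maximal effect; % is scaled to controls: 0 for no effect and ±100 for the full control effect; nearly all actives have a fitted effect of over 65% in size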
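HTRF cAMP measurement after 30 min RT detection following 30 min, 37C compound treatment alongside […] (added as 300 uM solution) in G418-selected cells seeded at 2000/well and grown 16–24 h.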
The depositor's hits bear a star; & = joins results of further samples; [ ] = another dose, or the depositor's remark.

`CCCCOc1nc2ccccc2nc1C(C#N)C(=O)NC1CCCCC1` (stereo unspecified) gave TRPML1 blocker 4.3, TRPML1 ag -0.7, gsp agonist 14.3%, Menin MLL FP FL 1.3, ClpP mod 3.0% and gsp antagonist -3.8%.
Screening Cc1oc(-c2ccccc2)cc1C(=O)Nc1ccc(N(C)C)cc1 returned TRPML1 blocker 20.7, TRPML1 ag 2.8, gsp agonist 23.9%, Menin MLL FP FL -1.1, ClpP mod -1.5% and gsp antagonist -8.1%.
For CCOC(=O)C1CCN(CCC(=O)Nc2cccc(Cl)c2)CC1 the results were TRPML1 blocker -7.2, TRPML1 ag -0.6, gsp agonist -20.8%, Menin MLL FP FL -0.8, ClpP mod 0.4% and gsp antagonist 6.4%.
For CC(C(=O)Nc1ccc(C(=O)O)cc1)N1C(=O)c2ccccc2C1=O (stereo unspecified) the results were TRPML1 blocker -8.3, TRPML1 ag -1.2, gsp agonist 20.9%, Menin MLL FP FL 2.4, ClpP mod 0.5% and gsp antagonist -8.5%.
For CN(C)S(=O)(=O)Oc1ccccc1C(=O)Nc1ccccc1Cl the results were TRPML1 blocker -5.1, TRPML1 ag 0.0, gsp agonist inconclusive, Menin MLL FP FL 3.6 and gsp antagonist 2.9%.
For c1ccc2c(c1)[nH]c1ccncc12 the results were TRPML1 blocker -19.2, TRPML1 ag 0.2, gsp agonist 2.8%, ClpP mod -10.5% and gsp antagonist 11.3%.
For COc1ccc(C)cc1S(=O)(=O)N1CCCCC1 the results were TRPML1 blocker 12.9, TRPML1 ag -0.1, gsp agonist -8.7%, Menin MLL FP FL -4.1, ClpP mod -0.4% and gsp antagonist 4.9%.
For CCN1C(=O)/C(=C\N2CCCCCC2)SC1=S the results were TRPML1 blocker 58.7, TRPML1 ag 0.2, gsp agonist 10.7%, Menin MLL FP FL -0.3, ClpP mod -0.6% and gsp antagonist -8.1%.
For Cc1onc(-c2ccccc2)c1C(=O)NNC(=S)NC(=O)c1ccc2c(c1)OCO2 the results were TRPML1 blocker 10.9, TRPML1 ag 9.9, gsp agonist -1.8%[15.4 µM], Menin MLL FP FL -1.2 and gsp antagonist -15.5%.
Screening CCCCOc1ccccc1C(=O)NCCCC(=O)O returned TRPML1 blocker -6.0, TRPML1 ag -0.7, gsp agonist 22.0%, Menin MLL FP FL 0.6, ClpP mod -0.4% and gsp antagonist -15.4%.
Screening O=C1NNC(=O)C1c1ccccc1 returned TRPML1 blocker -6.4, TRPML1 ag -0.3, gsp agonist 15.0%, Menin MLL FP FL -0.4, ClpP mod -0.5% and gsp antagonist 10.8%.
CCOc1ccccc1NS(=O)(=O)c1ccc(-c2cnc(C3CC3)o2)cc1 was read as TRPML1 blocker 3.9&4.1, TRPML1 ag 2.5&0.5, gsp agonist 13.9%, ClpP mod -6.9%&-5.2% and gsp antagonist -3.1%.
Screening Cc1ccc(-c2cc(C(F)F)n3ncc(C(=O)N4CCCc5ccccc54)c3n2)cc1 returned TRPML1 blocker 1.7, TRPML1 ag -1.0, gsp agonist -19.8%, Menin MLL FP FL 1.4, ClpP mod 5.3% and gsp antagonist 12.8%.
CCc1noc(C)c1C(=O)N1CCC(CCC(=O)Nc2cccc(C)c2)CC1 was read as TRPML1 blocker -11.4, TRPML1 ag 0.3, gsp agonist -97.6%[inhibitor], ClpP mod -2.1% and gsp antagonist 7.9%.
Screening Cc1ccsc1C(=O)OCc1csc(-c2ccccc2)n1 returned TRPML1 blocker 7.9, TRPML1 ag 2.0, gsp agonist -29.4%, Menin MLL FP FL 5.3, ClpP mod -9.9% and gsp antagonist -12.5%.
O=C1N=c2ccccc2=C1c1sc(NS(=O)(=O)c2ccccc2)nc1O was read as TRPML1 blocker -2.4, TRPML1 ag -0.9, gsp agonist 0.3%, Menin MLL FP FL 0.8 and gsp antagonist 0.0%.
For CN1CCN(NC(=O)Nc2cccc(Cl)c2Cl)CC1 the results were TRPML1 blocker 11.4, TRPML1 ag 1.9, gsp agonist 11.7%[15.4 µM], Menin MLL FP FL 1.2 and gsp antagonist 8.8%.
For COc1ccc(OC)c(CNC(=O)C2CCN(C(=O)N(C)C)CC2)c1 the results were TRPML1 blocker 12.4, TRPML1 ag 0.2, gsp agonist -79.0%[inhibitor], Menin MLL FP FL 4.6, ClpP mod -1.6% and gsp antagonist 3.1%.
`Cc1cc(Nc2ccccc2)n(CCOC(=O)COc2ccccc2)n1` gave TRPML1 blocker 11.0, TRPML1 ag 0.2, gsp agonist 11.9%, Menin MLL FP FL 3.9, ClpP mod -1.3% and gsp antagonist 5.5%.
`COc1cccc(C(=O)N2CCN(C(=O)c3ccc(-c4ccccc4)cc3)CC2)c1OC` gave TRPML1 blocker 2.2, TRPML1 ag 0.5, gsp agonist 4.6%[15.4 µM], Menin MLL FP FL -2.7 and gsp antagonist -12.0%.
For CCCCn1c(N)c(N(CCOC)C(=O)c2cc(-c3ccccc3Cl)nc3ccccc23)c(=O)[nH]c1=O the results were TRPML1 blocker -8.1, TRPML1 ag 0.1, gsp agonist -7.4%, ClpP mod -8.8% and gsp antagonist 3.7%.
For Cc1cccc(C)c1NC(=O)N1CCC(C(=O)c2ccc(F)cc2)CC1 the results were TRPML1 blocker -7.9, TRPML1 ag 0.1, gsp agonist 2.7%, Menin MLL FP FL -1.4 and gsp antagonist -1.2%.
COc1ccc(CCNCC(=O)Nc2ccc(OC(F)F)cc2)cc1 was read as TRPML1 blocker 8.7, TRPML1 ag 0.1, gsp agonist 1.3%[15.4 µM], Menin MLL FP FL -2.0 and gsp antagonist -21.8%.
For CC(=O)CC(C)(C)S(=O)(=O)c1ccc(Oc2ccc(S(=O)(=O)C(C)(C)CC(C)=O)cc2)cc1 the results were TRPML1 blocker 17.7, TRPML1 ag 0.0, gsp agonist -22.0%, Menin MLL FP FL -0.4, ClpP mod -0.9% and gsp antagonist inconclusive.
CC(C)C(=O)Nc1ccc2c(c1)C(=O)N(CCC(=O)O)C2=O was read as TRPML1 blocker -0.4, TRPML1 ag -0.2, gsp agonist inconclusive, Menin MLL FP FL -2.4, ClpP mod 28.2µM* and gsp antagonist 3.8%.
O=S(=O)(c1ccc(-c2cc(C(F)(F)F)on2)s1)N1CCN(c2ccccc2)CC1 was read as TRPML1 blocker -19.4, TRPML1 ag -0.1 and ClpP mod 0.3%.
For O=C(NCc1ccco1)C(=O)NCC1OCCN1S(=O)(=O)c1cc(F)ccc1F (stereo unspecified) the results were TRPML1 blocker -5.9, TRPML1 ag -0.8, gsp agonist 3.6%, Menin MLL FP FL 0.7 and gsp antagonist 7.3%.
`COc1cccc2c(=O)c(C/C=C(/C)Cl)c(C)[nH]c12` gave TRPML1 blocker 4.0, TRPML1 ag -0.7, gsp agonist 28.9%, Menin MLL FP FL -1.8, ClpP mod 15.8µM* and gsp antagonist 6.0%.
`Cc1ccc(C(=O)c2oc3ccccc3c2NC(=O)c2cc(=O)c3cc(C)ccc3o2)cc1` gave TRPML1 blocker -10.7, TRPML1 ag -0.1 and ClpP mod -1.8%.
`O=C(NNC(=O)c1ccc(Cl)c(Cl)c1)c1cccnc1` gave TRPML1 blocker 6.6, TRPML1 ag -0.3, gsp agonist 10.7%, ClpP mod 2.0% and gsp antagonist 8.7%.
Screening COCCN=C1OC(=O)N2C(=O)C3=C4[C@@H](C[C@H]5C(=O)N(c6ccccc6)C(=O)[C@H]5[C@H]4[C@@]12Cc1ccccc1)[C@H]1C(=O)N(c2ccccc2)C(=O)[C@H]1[C@H]3C returned TRPML1 blocker -9.2, TRPML1 ag -0.3, Menin MLL FP FL 8.8, ClpP mod 1.6% and gsp antagonist -3.7%.
Screening Cc1ccc(OCCOCCn2cnc3ccccc3c2=O)c([N+](=O)[O-])c1 returned TRPML1 blocker 15.7, TRPML1 ag 0.4, gsp agonist 6.0%, Menin MLL FP FL 0.7, ClpP mod -1.6% and gsp antagonist 1.8%.
`CC(C(=O)N1CCN(Cc2ccccc2)CC1)n1ncn2cccc2c1=O` (stereo unspecified) gave TRPML1 blocker 2.2, TRPML1 ag -0.6, gsp agonist 2.0%, Menin MLL FP FL -2.1, ClpP mod 2.0% and gsp antagonist 3.5%.
CCCCc1nc(SCC(=O)N2CCCCC2)c2c(=O)n(C)c(=O)n(C)c2n1 was read as TRPML1 blocker -9.8, TRPML1 ag -0.5, gsp agonist -0.2%[15.4 µM], ClpP mod -26.2% and gsp antagonist -28.3%.
`CCN(CC(=O)Nc1c(F)cccc1F)C(=O)c1cccc(-n2cnnn2)c1` gave TRPML1 blocker 7.4, TRPML1 ag -0.6, gsp agonist -43.5%[inhibitor], ClpP mod -2.4% and gsp antagonist 11.1%.
Screening CCOC(=O)C(C)Sc1nc(=O)n2ccccc2n1 (stereo unspecified) returned TRPML1 blocker -2.4, TRPML1 ag -0.1, gsp agonist -13.4%[15.4 µM], Menin MLL FP FL 7.0 and gsp antagonist 8.9%.
CC(=O)c1ccc(S(=O)(=O)Nc2ccc(C(=O)NCC(c3cccs3)N3CCOCC3)cc2)cc1 (stereo unspecified) was read as TRPML1 blocker 8.3, TRPML1 ag -0.4, gsp agonist -36.4%[inhibitor], ClpP mod 1.6% and gsp antagonist -10.6%.
Screening Cc1ccc(CSc2nnc3[nH]c(=O)cc(C)n23)cc1 returned TRPML1 blocker 9.8, TRPML1 ag 0.5 and ClpP mod -6.3%.
Screening CCOC(=O)c1sc(S(C)(=O)=O)c2c1CCc1conc1-2 returned TRPML1 blocker 7.2, TRPML1 ag 1.0, gsp agonist -0.9%[15.4 µM], Menin MLL FP FL 4.9 and gsp antagonist -5.8%.
`CCOc1ccccc1NC(=O)Cn1c(=O)n(C(C)C)c(=O)c2oc3ccccc3c21` gave TRPML1 blocker 24.7, TRPML1 ag -0.7 and ClpP mod -8.3%.
`COc1ccc(Cn2c(SCc3ccc(C(=O)NCc4ccc(C)cc4)cc3)nc3cccnc32)cc1` gave TRPML1 blocker 6.7, TRPML1 ag 3.7 and ClpP mod 31.6µM*.
For CCC1(C)Cc2ccccc2-c2nc(NCCCO)n(-c3ccccc3)c(=O)c21 (stereo unspecified) the results were TRPML1 blocker -13.0, TRPML1 ag 4.6, gsp agonist -6.0%, Menin MLL FP FL 5.4, ClpP mod 3.55µM* and gsp antagonist 5.6%.
CC(=O)Nc1nnc(CCS(=O)(=O)c2ccc(C)cc2)s1 was read as TRPML1 blocker 5.4, TRPML1 ag 0.1, gsp agonist -18.4%[15.4 µM] and gsp antagonist 11.1%.
